NPYLR7 ag: activates Aedes aegypti NPYLR7 receptor. activation, % at 10 µM. AID 1259423. 270,000 compounds, 0.15% hits. HEK293T NPYLR7/Galpha15, GCaMP6s calcium fluorescence; in the data active = activation above about 40%;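 note: 0% = vehicle and 100% = reference agonist at the receptor; some compounds past the cut are filed as inactive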
NPYLR7 ag max-min: recorded beside NPYLR7 ag, whose call it bears; activation, %; measured here: Max-Min RFU normalised activation; some inactives read as strong as hits;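 span of the calcium signal over five minutes; 0% = vehicle and 100% = native peptide agonist; compound fluorescence can raise it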
An asterisk follows results filed as active; & = joins results of further samples.

SMILES | NPYLR7 ag | NPYLR7 ag max-min
N#Cc1ccc(OCC(O)Cn2cnc3ccsc3c2=O)cc1 (stereo not given) | 2 | 0
COc1cc(Br)c(OC)c(C(=O)NCC(C)(C)N2CCOCC2)c1 | 5 | 7
O=C(c1cn(C(c2ccccc2)c2ccccc2)nn1)N1CCCC1c1ccc(F)cc1 (stereo not given) | 6 | 6
Cc1ccsc1CN(C)S(=O)(=O)c1cccc(F)c1C#N | 13 | 13
CCN(CC)c1ncccc1CNC(=O)c1c[nH]c2ccccc12 | -2 | -3
Cc1cc(C(=O)NC(c2nnc3n2CCNCC3)C(C)C)nc(C)n1 (stereo not given) | 8 | 7
COC(=O)C1=C(O)/C(=C\c2ccc(OC)c(O)c2)SC1=Nc1ccccc1Cl | -3 | 3
O=S(=O)(N[C@H]1CO[C@H]2[C@@H]1OC[C@@H]2n1cc(COc2ccccc2)nn1)c1cccc2cccnc12 | -12 | -16
Cc1nc(C(=O)Nc2ccc(C#N)cc2Br)ccc1C#N | 5 | 1
CC1CN(CC(O)CN2C(=O)c3cccc4cccc2c34)CC(C)O1 (stereo not given) | 8 | 7
COc1ccc(S(=O)(=O)Nc2ccccc2C(=O)NC(C)C)cc1 | -1 | 6
CCOC(=O)[C@@H]1C[C@H]2CN(C)C(=O)c3cccc(c32)N1C(=O)c1ccccc1OCC | 0 | 6
Cc1cc(C(=O)N2CCCC(C(=O)c3ccc(-c4ccccc4)cc3)C2)no1 (stereo not given) | -2 | -2
COc1ccccc1N1CCN(c2nc(Nc3ccc(F)cc3)c3nccnc3n2)CC1 | 1 | 2
COCCN(C)C(=O)Nc1ccccc1-c1ccccc1 | 6 | 8
CCC(=O)Nc1ccc(SCc2ccccn2)nn1 | 4 | -7
Nc1ncc(C(=O)N2CCCC(Nc3ccccc3)C2)c(-c2ccccc2)n1 (stereo not given) | 13 | 0
CCC(C)Nc1ncnc2sc3c(c12)CCCC3 (stereo not given) | -2 | -3
Cc1[nH]n(-c2nc(-c3ccc(Br)cc3)cs2)c(=O)c1N=Nc1ccc(Cl)cc1Cl | -5 | -8
O=C(CC(c1ccccc1)c1ccc2c(c1)OCO2)NCCc1cscn1 (stereo not given) | 14 | -2
Cc1ncc(CNC2CC(C)(C)Cc3nc(N4CCC(O)CC4)ncc32)n1C (stereo not given) | 4 | 0
CN1C(=C2C=NN(c3ccccc3)P2(=O)N2CCCCCC2)C(C)(C)c2ccccc21 (stereo not given) | 4 | 11
NC(=O)Cn1c(CO)cnc1SCc1ccc(C(F)(F)F)cc1 | 2 | -1
COC(=O)C1(NC(=O)CCc2csc(C)n2)CCC(C)CC1 (stereo not given) | 4 | 3
COC(=O)c1ccc(-c2nc(CN(C)Cc3cc4ccccc4s3)c(C)o2)cc1 | 5 | 0
O=[N+]([O-])c1ccc(NCc2ccco2)c([N+](=O)[O-])c1 | 8 | 5
O=C1c2ccccc2C(=O)c2c(O)ccc(O)c21 | 8 | 8
CC1CCCN(C(c2ccccc2F)C2Sc3nc(-c4ccco4)nn3C2=O)C1 (stereo not given) | -6 | -5
O=C(NCc1ccccc1)c1cnn2c(C(F)(F)F)cc(-c3ccc(Br)cc3)nc12 | 6 | 4
COCCN(CC(=O)Nc1cccc(C)c1C)C1CCN(C)CC1 | 14 | 13
CCOC(=O)C1CCN(C(=O)c2csc(CSc3nnc(-c4ccccc4Cl)n3-c3ccccc3Cl)n2)CC1 | 0 | 9
Cc1nccn1-c1ccccc1CNC(=O)CC1C(=O)NCCN1C(C)C (stereo not given) | 9 | 5
O=C(Cc1cccc2ccccc12)NN1C(=O)C2C3C=CC(C4CC34)C2C1=O (stereo not given) | 2 | 0
Cn1ncc(Oc2ccc(F)cc2)c(Nc2ccc(C(=O)NCCN3CCOCC3)cc2)c1=O | -5 | 8
Cc1cccnc1CN(C)C(=O)c1ccc2nc(Cc3ccccc3F)oc2c1 | 5 | 8
O=C(NCCc1ccccc1)c1cccnc1Nc1cc(Cl)cc(Cl)c1 | -6 | -12
O=C(c1ccco1)N(CCCN1CCOCC1)c1nc2c(Cl)cccc2s1 | -2 | -7
C=CCN(Cc1nc(-c2ccccc2)no1)C(=O)Cc1ccc2c(c1)NC(=O)CO2 | -1 | -1
O=C(Cc1cc(-c2cccs2)on1)NC1=NCCS1 | 4 | 4
CCOC(=NCCN1CCOCC1)NC(=O)c1cccc(C(F)(F)F)c1 | 13 | 22
Cc1cnc2c(S(=O)(=O)N3CCCC(C(F)(F)F)C3)cccc2c1 (stereo not given) | 3 | 2
CCOC(=O)COc1ccccc1C=C1C(=O)NC(=S)NC1=O | -2 | -9
COCCN(CC(=O)Nc1nc(CC(=O)N2CCC3(CC2)OCCO3)cs1)C(=O)c1ccc(Cl)cc1 | 0 | -8
CC1(CN2CCC(c3ccccc3)C2)COC1 (stereo not given) | 24 | 18
O=C(NC1CC(=O)N(Cc2cccc(F)c2)C1)C(=O)N1CCOCC1 (stereo not given) | 9 | 6
Cc1ccccc1NC(=O)N1CCC2(CC1)SCCN2C(=O)COc1ccccc1 | 6 | 11
Cc1cnc(C(=O)OCC(N)=O)cn1 | 1 | -3
CCOc1ccc(CN2CCN(Cc3ccc(OC)c(C)c3C)C(CCO)C2)cc1CO (stereo not given) | 3 | 2
Cc1ccc(CN(C)C(=O)NCC(C)(C)S(C)(=O)=O)s1 | 2 | 0
CC(c1ccccc1)N(Cc1cc(NC(=O)Nc2ccc(C(F)(F)F)cc2)ccc1N(C)C)C(=O)C(C)(C)C (stereo not given) | 19 | 22
COC(=O)CCc1c(C)nn(-c2nc(C)cc(=O)[nH]2)c1C | -3 | -5
Cc1cc(C)n(Cc2cc(C(=O)N(C)CCc3ccccn3)n[nH]2)n1 | 9 | 8
C=CCNC(=O)CCCCCn1c(=O)[nH]c2ccsc2c1=O | 0 | -3
COc1ccc(F)cc1CS(=O)C(C)c1ccccc1F (stereo not given) | 1 | 0
Cc1sc2ncnc(N(C)CCCc3nccn3C)c2c1C | -2 | 18
C[C@@H]1CC2C3C[C@H](F)C4=CC(=O)C=C[C@]4(C)[C@@]3(F)[C@@H](O)C[C@]2(C)[C@@]1(O)C(=O)CO (stereo not given in full) | 1 | -3
COc1ccc(-n2cc(CNCc3ccc4c(c3)OCO4)c(-c3ccccc3Cl)n2)cc1 | 15&-2 | 5&-4
CCOC(=O)C1CCN(C(=O)c2ccc(CSc3nc(C)cc(N4CCN(Cc5ccc6c(c5)OCO6)CC4)n3)o2)CC1 | -10 | -3
CCOc1ccccc1NC(=O)NCC1CCN(c2nc(Cc3ccc(C)cc3)ns2)CC1 | 6 | 12
COc1ccc(C(=O)O)cc1S(=O)(=O)N(C)Cc1sccc1C | 6 | 4
Next part
SMILES | NPYLR7 ag | NPYLR7 ag max-min
Cc1ccc(S(=O)(=O)N2CCCCC2CCNC(=O)Nc2cccs2)cc1 (stereo not given) | -1 | -3
COC(=O)C(NC(=O)c1scnc1C)c1ccc(C)cc1 (stereo not given) | 2 | 0
C/C(=C\c1ccccc1)CN1CCCC(CN2CCCC2=O)C1 (stereo not given) | 2 | 2
Cc1cc(NC(=O)CCl)ccc1N1CCCC1 | 5 | 6
Cc1ccc2nc(N(CCN(C)C)C(=O)C3=COCCO3)sc2c1 | -4 | -9
Cc1n(CC(=O)c2ccc(Br)cc2)c2ccccc2[n+]1C | -2 | -4
CCOC(=O)c1nn(-c2ccc(C)cc2)c(=O)cc1N1CCCC1 | 9 | 5
Cn1c(=O)c2c(ncn2CC(=O)N2CCOC(COc3ccccc3)C2)n(C)c1=O (stereo not given) | 11 | 17
CC(C)c1nc(SC2CCCCNC2=O)nn1-c1ccccc1 (stereo not given) | 2 | 1
Cc1ccc(C(=O)NC2CCN(c3ccccc3C(=O)N3CCCC3)CC2)cc1 | 9 | 6
CC(C)(C)n1nc2c(c1NC(=O)c1cccc3ccccc13)CS(=O)C2 (stereo not given) | -3 | -5
Cn1c(=O)[nH]c(=O)c2c1nc(N1CCN(Cc3ccccc3)CC1)n2CCCc1ccccc1 | 8 | 5
CC(C)CC(=O)N(Cc1ccco1)Cc1nccn1Cc1ccc(C(F)(F)F)cc1 | 15 | 8
CC(C)CN1N=C(c2ccc(F)cc2)Cn2c1nc1c2c(=O)n(CC(C)C)c(=O)n1C | 4 | 9
NC(=O)C1CCCCN1Cc1cccc2ccccc12 (stereo not given) | 0 | -3
Cc1cccc(Cc2nc3c(c(N4CCOCC4)n2)CN(C(=O)c2cccc(Br)c2)CC3)c1 | -4 | 7
COc1cccc(NC(=O)Nc2ccc(N3CCN(c4ccccc4OC)CC3)c(C(=O)NC(C)C)c2)c1 | 2 | -6
CSCc1ccc(C(=O)N2CCCC(C(=O)c3ccc4ccccc4c3)C2)o1 (stereo not given) | -1 | -3
N#Cc1ccc(OC(C(N)=O)c2ccc(F)cc2)c(Cl)c1 (stereo not given) | 12&7 | 6&2
COc1ccc(/C=C2\C=C(c3ccccc3)N(c3ccc(C(C)(C)C)cc3)C2=O)cc1 | -3 | 4
CCOC(=O)c1sc(NC(=O)CSC(=O)N(CC)CC)c(C(=O)OCC)c1C | -4 | -11
NC(=O)CCN(C(=O)COc1cccc(F)c1)c1ccc(F)cc1 | 4 | -2
Cn1ccnc1C(=O)NCCOc1ccccc1Cl | 1 | 0
CC(=O)Nc1cccc(NC(=O)c2cccn(OCc3ccccc3F)c2=O)c1 | 4 | 2
CCCCCC(=O)Nc1sc2c(c1C(N)=O)CCC2 | 24 | 18
CC(C)c1cc(C(=O)N(C)Cc2ccsc2)c2ccccc2n1 | 7 | 3
CCCC(=O)Nc1nnc(CC(=O)N/N=C\c2ccccc2O)s1 | -2 | -6
COCC(=O)N1CCC2(CC1)C(=O)N(CC(=O)NCc1ccc(F)cc1)CN2c1ccccc1 | 7 | 4
O=C(NC(c1cccnc1)c1ccc2c(c1)OCO2)C1CCN(CCOc2ccc(Cl)cc2Cl)CC1 (stereo not given) | 11 | 4
COC(=O)c1cccc(CN2C(=O)C(C)Oc3ccc(C#N)cc32)c1 (stereo not given) | -6 | -6
O=C(CCNS(=O)(=O)c1ccc2c(c1)OCCCO2)Nc1ccccc1F | -1 | 27
Cc1c(CN(C)Cc2ccc(-n3cncn3)cc2)cnn1C | 6 | 4
CCOc1cc(CN2Cc3nc(N)nc(-c4ccccc4)c3C2)ccc1O | 18 | 2
CCCc1cc(CN(C)c2nc(C)nc3sccc23)[nH]n1 | -10 | -12
CCCCCOc1ccc(C(=O)NC/C=C(\C)CCC=C(C)C)cc1OCCCCC | -6 | -10
Cc1cnccc1CN(C)C(=O)c1ccnc(N)c1 | 4 | 2
CC1=C(C(=O)N2CCCC(CCC(=O)Nc3ccc(C(F)(F)F)cc3)C2)OCCO1 (stereo not given) | 8 | 2
CCN(C(=O)Cn1c(CNC(=O)c2ccco2)nc2ccccc21)c1ccccc1 | -6 | -6
CC(=O)Cn1c(=O)c2c(nc3n(CCc4ccccc4)c(C)c(C)n23)n(C)c1=O | -2 | -3
COCCN1C(=O)c2ccccc2[C@H](C(=O)N2C[C@@H](C)O[C@@H](C)C2)[C@@H]1c1cccnc1 | -4 | -3
C=CCn1c(C)n[nH]c1=S | 7 | 2
Cc1nn(C)c(C)c1CN(C(=O)CC1C=CS(=O)(=O)C1)C(C)C (stereo not given) | 0 | -3
COc1cc(/C=C2\C(=O)N(c3ccccc3)N=C2C)cc(OC)c1OC | -1 | 6
COc1c(C)cc(C(=O)N2CCOC(COc3ccc(Cl)c(C)c3)C2)cc1C (stereo not given) | 16 | 14
Cc1cccc(-n2c(CNC(=O)Cc3ccccc3)nnc2SCC(=O)Nc2nnc(C)s2)c1 | -8 | -3
CCOC(=O)N1CCN(C(c2ccc(Br)cc2)C2Sc3nc(CC)nn3C2=O)CC1 (stereo not given) | -4 | -9
CCN(CC)c1cccc(OCC2CN(C(=O)c3cc(C)c(OC)c(C)c3)CCO2)c1 (stereo not given) | 15 | 23
Cc1cc(C)nc(NN=C2CCN(C(C)C)CC2)n1 | 5 | 3
O=S(=O)(Nc1ccc(Br)cn1)c1ccc(F)cc1 | 0 | -2
CCOC(=O)C1CCN(C(=O)c2cc(-c3ccc(C)c(C)c3)nn2-c2ccc(Cl)c(Cl)c2)CC1 | 3 | 5
Cn1ccsc1=NC(=O)C1CC(=O)N(c2ccccc2Cl)C1 (stereo not given) | 2 | 1
CCOc1ccccc1NC(=O)c1nnn(CC(=O)Nc2ccc(C)c(C)c2)c1N | -7 | -13
CC(CC(=O)C1C(C)C=CCC1(C)C)Nc1ccccc1 (stereo not given) | 2 | 1
COc1ccc(CCN(C)C2CCCNC2)cc1OC (stereo not given) | 6 | 3

Some of the compounds tested; the hit share may differ from the screen's.
